Compound activity deposited in PubChem BioAssay by several laboratories.
BJeLR viability: BJeLR cell viability loss | BJeLR (HRASV12) viability, CellTiter-Glo ATP luminescence, 48 h; reference of the scale not given here | inhibition, % (no concentration beside the values) | actives 0.17% (n = 300,000);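 active = replicate mean above 50%; inconclusive = above 50% but judged a plate artefact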;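 also: 50 nL library stock added to about 25 µL; numbers are from one replicate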
RN4220 kill: S. aureus RN4220 growth inhibition. OD600, 16 h. inhibition, % (test concentration not listed). actives 0.33% (n = 330,000). AID 1259311;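 active = z-score of -3 or lower and OD600 up to 0.18 on both plates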;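 also: plate controls were untreated cells for no effect and reference antibiotic for full effect; stock transfer was 100 nL into about 80 µL; one replicate is shown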
ugtP null kill: compounds lethal to S. aureus RN4220 ugtP deletion mutant; OD600 growth, 16 h; some inactives read as strong as hits; growth inhibition, % (no concentration beside the values); actives 0.54% (n = 330,000); AID 1259309;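 active = z-score under -3 and OD600 up to 0.15 on both plates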;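 also: plate controls were untreated wells for no effect and antibiotic for full effect; wells of about 80 µL received 100 nL stock; the first replicate is given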
Bead autofluor: counter-screen for toxin protease inhibitors: compound fluorescence; AID 624483; fluorescence intensity (no concentration beside the values); actives 3.1% (n = 360,000); compound autofluorescence counterscreen, microsphere flow cytometry; stronger effect = higher value;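 active = at least 3 SD above the mean of all compounds, about 16000 in these data; inconclusive = too few beads counted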;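 also: 100 nL of 1 mM stock went into each well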
Mtb hypoxia inh: inhibitors of hypoxia-regulated fluorescent reporter in Mycobacterium tuberculosis; fluorescence inhibition, % (no concentration beside the values); AID 1159583; actives 0.1% (n = 300,000); M. tuberculosis hypoxia-regulated fluorescent reporter, fluorescence;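 active = 35 to 45% if threefold the growth effect, above 45% if 1.5-fold the growth effect; inactive = the rest, general growth blockers included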;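 also: wells of about 50 µL received 100 nL stock; 0% = vehicle wells and 100% = reference inhibitor wells; whole bacteria with a GFP reporter of the hypoxia response; strong numbers were not always called active; many hits fall short of the cut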
PrP 5UTR inh: inhibition of PrP 5' UTR reporter expression; cell-based PrP 5' UTR mRNA reporter, plate reader; inhibition, % (concentration not given with the values); actives 0.35% (n = 340,000); AID 488862;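 active = every replicate at 50% or more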;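 also: 0 = median of the neutral control wells; tested in H4 reporter cells; numbers are from one replicate; inactives centre near -14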
Mtb hypoxia inh growth: recorded beside Mtb hypoxia inh, whose call it bears; growth inhibition, %; measured here: M. tuberculosis growth (absorbance);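 0% = vehicle and 100% = reference antibiotic; read after six days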
Starred values were filed as active, the others as inactive; ? = inconclusive; . = no result given. Not a hit list (roughly 4% active in at least one column).

SMILES	BJeLR viability	RN4220 kill	ugtP null kill	Bead autofluor	Mtb hypoxia inh	Mtb hypoxia inh growth	PrP 5UTR inh
CC(=O)Nc1ccc(NC(=O)COC(=O)Cc2c[nH]c3ccccc23)cc1	-0.8	2.7	5.9	2332	13.0	10.9	6.8
CNC(=O)CC1C(=O)N(c2ccc(F)cc2)C(=S)N1NC(=O)c1ccc(Br)cc1 (configuration not stated)	2.5	4.2	-5.2	2973	4.8	-6.8	-5.6
Cc1ccnn2cc3c(=O)n(C)c(=O)n(C)c3c12	-7.9	3.6	-2.6	.	-3.8	7.2	.
Cc1nn(-c2ccccc2)c(Cl)c1C=NNC(=O)c1ccccc1F	.	3.7	1.4	.	-6.5	9.2	.
Cc1nonc1OCCN1CCN(c2ccc([N+](=O)[O-])cc2)CC1	-6.7	2.7	8.2	5210	7.6	1.5	-13.3
O=C(COC(=O)c1ccco1)Nc1cccc(Br)c1	-13.1	25.7	20.8	2528	5.2	8.5	0.9
COCCN1C=C(C(=O)OC)C(c2cc(Br)c(OC)c(OC)c2)C(C(=O)OC)=C1	6.1	-2.5	-4.7	3505	-1.6	6.1	-74.7
CCCN=C1N(CC)C[C@@H]2[C@@H]3C(=O)N(Cc4ccccc4)C(=O)[C@@H]3[C@](C)(C(=O)OC)N12	.	2.6	-0.7	3697	-0.5	2.9	10.3
COc1ccccc1NC(=O)c1c(N=Cc2c(O)ccc3ccccc23)cnn1C	14.4	5.0	8.0	3660	-12.2	2.5	-22.2
CCN(CC)CCn1c2c(c(SCC(=O)Nc3ccc(C)c(F)c3)nc1=O)CCC2	-2.6	5.4	12.0	?	7.6	1.0	-6.9
CCn1c(=O)c([N+](=O)[O-])c(NCC(O)c2ccccc2)c2ccccc21 (configuration not stated)	-6.8	6.9	11.3	2210	15.6	5.6	-19.6
Cc1nc(NC(C)C(=O)O)c2nc(C)oc2n1 (configuration not stated)	4.6	3.9	-6.3	21393*	2.7	4.8	-21.7
CC1CCCCC1NC(=O)COCc1cc(-c2cccs2)on1 (configuration not stated)	-17.7	3.3	2.9	5254	-1.1	5.2	-20.0
CCN(CC(=O)Nc1ccc2c(c1)OCCO2)C(=O)/C=C/c1ccc([N+](=O)[O-])cc1	.	5.4	6.3	4335	11.6	8.1	-20.0
CCCCCCCNC(=O)C1(CC2CC(c3cccc(Br)c3)=NO2)CCN(C(=O)CCCCCBr)CC1 (configuration not stated)	3.1	.	.	2825	.	.	9.9
CN(C)c1ccc(C2Nc3ccccc3C(=O)N2NS(=O)(=O)c2ccccc2)cc1 (configuration not stated)	.	4.0	4.8	8606	14.2	2.0	-28.5
CCC1CCCCN1CCCNC(=O)c1c(O)nc2cc(C)ccn2c1=O (configuration not stated)	7.7	6.7	15.9	4425	0.0	-8.3	-8.9
O=C(Nn1cnnc1)C1Cc2ccccc2CN1S(=O)(=O)c1ccc(F)cc1 (configuration not stated)	10.4	4.4	2.4	15984	9.7	4.3	-23.7
O=C(COc1ccc2c(-c3ccccc3)cc(=O)oc2c1)NC(Cc1c[nH]c2ccccc12)C(=O)O (configuration not stated)	.	-2.8	6.6	3679	3.0	4.7	-7.1
COc1ccc(/C=N/Nc2ccccc2)cc1Cn1nc(C)c([N+](=O)[O-])c1C	1.1	.	.	6107	.	.	-12.3
O=C(Nc1ccc2ccccc2c1)C(=O)C1C(=O)Nc2ccccc21 (configuration not stated)	-3.9	4.9	1.0	.	1.2	-7.9	.
O=C(NCc1ccccn1)C(=O)NCC1OCCN1C(=O)c1ccc(Cl)cc1 (configuration not stated)	1.9	-0.4	0.7	5636	-2.8	-2.4	1.4
COc1ccc(CN(C(=O)c2cc(=O)c3ccccc3o2)C2CCS(=O)(=O)C2)cc1 (configuration not stated)	2.7	3.7	0.0	5939	11.1	4.8	-20.1
COC(=O)c1c(C)n(-c2ccc(C)cc2)c2ccc(O)cc12	.	2.7	-25.0	9914	0.3	13.5	-23.9
CCC1=C(OC(=O)N(CC)CC)N2C(=O)OC(=NCC3CC3)[C@]2(C)C2C1=CCC1C(=O)N(CC)C(=O)C12 (some centres not stated)	.	-0.3	0.9	.	3.2	18.3	.

11 neighbouring compounds from above, quoted:
SMILES	BJeLR viability	RN4220 kill	ugtP null kill	Bead autofluor	Mtb hypoxia inh	Mtb hypoxia inh growth	PrP 5UTR inh
CC(=O)Nc1ccc(NC(=O)COC(=O)Cc2c[nH]c3ccccc23)cc1	-0.8	2.7	5.9	2332	13.0	10.9	6.8
CNC(=O)CC1C(=O)N(c2ccc(F)cc2)C(=S)N1NC(=O)c1ccc(Br)cc1 (configuration not stated)	2.5	4.2	-5.2	2973	4.8	-6.8	-5.6
Cc1ccnn2cc3c(=O)n(C)c(=O)n(C)c3c12	-7.9	3.6	-2.6	.	-3.8	7.2	.
Cc1nn(-c2ccccc2)c(Cl)c1C=NNC(=O)c1ccccc1F	.	3.7	1.4	.	-6.5	9.2	.
Cc1nonc1OCCN1CCN(c2ccc([N+](=O)[O-])cc2)CC1	-6.7	2.7	8.2	5210	7.6	1.5	-13.3
O=C(COC(=O)c1ccco1)Nc1cccc(Br)c1	-13.1	25.7	20.8	2528	5.2	8.5	0.9
COCCN1C=C(C(=O)OC)C(c2cc(Br)c(OC)c(OC)c2)C(C(=O)OC)=C1	6.1	-2.5	-4.7	3505	-1.6	6.1	-74.7
CCCN=C1N(CC)C[C@@H]2[C@@H]3C(=O)N(Cc4ccccc4)C(=O)[C@@H]3[C@](C)(C(=O)OC)N12	.	2.6	-0.7	3697	-0.5	2.9	10.3
COc1ccccc1NC(=O)c1c(N=Cc2c(O)ccc3ccccc23)cnn1C	14.4	5.0	8.0	3660	-12.2	2.5	-22.2
CCN(CC)CCn1c2c(c(SCC(=O)Nc3ccc(C)c(F)c3)nc1=O)CCC2	-2.6	5.4	12.0	?	7.6	1.0	-6.9
CCn1c(=O)c([N+](=O)[O-])c(NCC(O)c2ccccc2)c2ccccc21 (configuration not stated)	-6.8	6.9	11.3	2210	15.6	5.6	-19.6

Going on with the list:
SMILES	BJeLR viability	RN4220 kill	ugtP null kill	Bead autofluor	Mtb hypoxia inh	Mtb hypoxia inh growth	PrP 5UTR inh
COc1cccc(-c2nnc3n2N=C(C(C)(C)C)CS3)c1	3.3	9.3	-2.7	23357*	12.6	8.8	43.3
Cc1ccccc1C(=O)NNC(=O)CSc1nc2ccccc2c(=O)[nH]1	1.4	3.7	1.0	3957	5.5	-0.8	-21.9
CCN(CC)CCN(C(=O)c1ccc2c(c1)OCCO2)c1nc2cc(C)cc(C)c2s1	9.5	-3.6	7.3	5847	.	.	-0.3
CC(Oc1ccc(Br)cc1)C(=O)N(C)CC(=O)Nc1ccc(N2CCOCC2)cc1 (configuration not stated)	2.5	4.6	2.7	.	5.9	1.5	-5.8
CN(C(=O)c1ccccc1-c1ccccc1C(=O)O)c1ccccc1	-1.2	-1.9	-4.3	3840	2.6	4.0	-4.6
O=C(O)COc1ccccc1/C=N/NC(=O)CSc1nc2ccccc2n1Cc1ccc(Cl)cc1	-3.3	.	.	5126	.	.	-12.4
CCCCn1c(=N)n(CC(O)COc2ccccc2)c2ccccc21 (configuration not stated)	0.6	1.9	-5.0	3034	.	.	-20.5
CCN1CCN(c2ccc(S(=O)(=O)N3CCCCC3)cc2NC(=O)c2sccc2C)CC1	-10.6	1.9	1.3	.	7.6	11.3	-11.2
CC(C)Cn1c(N)c(C(=O)CSc2nncs2)c(=O)n(C)c1=O	.	2.1	-0.2	7696	18.3	36.8	-10.1
COc1c2ccoc2nc2c(OC)c(O)ccc12	-6.7	3.3	-2.5	4392	.	.	-10.3
O=C1NC(=O)C(=Cc2ccsc2)C(=O)N1	1.1	.	.	2153	.	.	-11.1
Cc1ccc(C(NC(=O)N2CCOCC2)C(Cl)(Cl)Cl)cc1F (configuration not stated)	11.9	3.9	2.1	2193	3.2	4.1	-14.9
CCCCOc1ccc(/C=C(\C#N)C(=O)NC2CC2)cc1	6.5	7.7	-4.2	3581	11.0	-7.4	.
O=C(CSCc1ccccc1Cl)Nc1c[nH]c(=O)[nH]c1=O	-12.5	8.1	6.0	8767	12.1	4.7	1.4
Cc1ccc(/C=C/C(=O)NC(=S)Nc2ccccc2C(=O)NC2CCCCC2)cc1	-4.9	6.4	2.1	5368	1.7	-0.6	-38.8
CCN(C(=O)c1c(OC)cccc1OC)c1nnc(-c2cccnc2)s1	1.0	6.0	13.8	3508	3.8	7.2	-7.2
CC(=O)Nc1ccc(NS(=O)(=O)c2cc(-c3n[nH]c(=O)c4ccccc34)ccc2C)cc1	-12.3	-4.0	5.7	4333	-3.7	1.5	-10.2
CCOC(=O)Cc1csc(NS(=O)(=O)c2ccccc2)n1	6.8	1.2	-11.7	2760	.	.	-25.1
CCOc1cc(CNS(=O)(=O)c2cn(C)cn2)cc(OCC)c1OCC	5.5	-1.5	-6.1	5654	-9.5	8.5	-13.5
CC(NC(=O)c1ccccc1)C(=O)OCC(=O)N1c2ccccc2Sc2ccccc21 (configuration not stated)	-2.0	4.1	0.4	12019	9.4	6.5	-16.4
O=C(O)c1cccc(N/N=C(\N=Nc2ccccc2)c2ccccc2)c1	14.5	.	.	2938	.	.	-71.0
COCCCNCCOc1ccc(C(C)(C)c2ccccc2)cc1	8.8	-5.6	71.3	2349	1.2	3.8	-4.9
O=c1c2c(nc3c(-c4ccccc4)c[nH]n13)CCC2	-2.6	3.9	11.3	8867	13.1	2.9	1.1
CCCN(CC(=O)Nc1ccc(Cl)cc1Cl)C(=O)/C=C/c1cc(OC)ccc1OC	3.0	9.7	-5.6	2508	-1.3	-6.5	-17.0
O=C(Cn1nc(-c2ccc(Cl)cc2)ccc1=O)NCC1COCCO1 (configuration not stated)	-5.4	-1.1	6.3	5327	0.4	3.1	0.8

(further entries)
SMILES	BJeLR viability	RN4220 kill	ugtP null kill	Bead autofluor	Mtb hypoxia inh	Mtb hypoxia inh growth	PrP 5UTR inh
CC(=O)c1ccc(OC(=O)COc2ccccc2)cc1	-2.2	2.9	-1.7	3774	-7.6	5.0	-10.6
COc1ccc(CCNC(=O)CSc2ncc(C(=O)Nc3ccccc3)c(=O)n2C)cc1	-3.4	-0.7	0.4	6281	2.6	10.8	-10.0
CNc1ncc(C(=O)c2ccc(F)cc2)s1	3.6	-0.2	-5.8	3434	-5.9	1.8	-62.5
CC(C)N1C(=O)C(O)(C2COC(C)(C)CC2=O)c2ccccc21 (configuration not stated)	-0.8	3.1	8.1	4438	-1.9	11.6	-14.9
CCOC(=O)N1CCN(C(=O)CSc2nc(CC)nc3c2c(=O)n(C)c(=O)n3C)CC1	6.8	2.8	9.3	4743	9.2	16.8	-9.7
CC(=O)Oc1cccc(/C=C2\Sc3ccccc3C2=O)c1	-14.8	7.3	-12.3	4291	4.3	-0.7	-13.5
O=C(Nc1ccc(SC(F)F)cc1)c1ccc(F)cc1	0.5	0.9	0.6	4088	-1.5	-2.0	-66.5
COc1ccc(C(NC(=O)CC(C)C)NC(=O)CC(C)C)cc1OC	-0.1	2.0	8.4	4336	.	.	-3.7
CCc1ccc(N(CC(=O)N2CCCCCC2)S(C)(=O)=O)cc1	18.8	1.5	1.6	3682	7.6	4.0	-5.9
CC(Oc1ccc2c3c(c(=O)oc2c1)CCCC3)C(=O)NCCN1CCOCC1 (configuration not stated)	3.2	3.5	5.5	4177	10.6	-3.6	5.9
CCOC(=O)c1cn(CC)c2ccc(S(=O)(=O)N3CC(C)CC(C)C3)cc2c1=O (configuration not stated)	.	0.8	-1.9	16593*	-5.5	1.9	-12.6
Cc1ccc(NC(=O)c2cccc(OC(F)F)c2)c(OC(F)F)c1	-1.1	13.8	6.9	2400	4.3	7.1	-12.4
CCOc1ccc(/C=N/OCC(=O)Nc2ccc(OCc3ccccc3)cc2)cc1OC	-1.1	.	.	2532	.	.	-20.7
Cc1ccc(N(CC(=O)Nc2ccc(F)c(Cl)c2)S(=O)(=O)c2c(C)noc2C)cc1	1.9	-3.6	-32.4	4851	.	.	-8.3
COc1ccc(/C=N/NC(=O)c2cc3cc(OC)c(OC)cc3[nH]2)cc1	-4.4	.	.	5864	.	.	1.2
COc1ccc(CCn2nnnc2C(C(C)C)N2CCN(c3ncccn3)CC2)cc1OC (configuration not stated)	-10.7	.	.	3268	.	.	17.1
COc1ccc(OC)c(-n2c(SC)nnc2-c2c[nH]c3ccccc23)c1	3.6	-10.9	-9.6	5838	-4.6	12.7	-9.9
O=C(CCN1CCCCC1)NCC1OCCc2ccccc21 (configuration not stated)	-0.8	0.8	6.2	7450	12.3	9.5	.
